VDR inh – blocks the human vitamin D receptor. VDR-SRC2-3 peptide fluorescence polarization, 2 h. Potency, µM, inactives show max response, negative = inhibition, usual class: inhibitors. hit rate 0.93% among 400,000. AID 504847; active = well fitted inhibition curve with a large enough effect; inconclusive = small, poorly fitted or top-dose-only effect, or another doubt; inactive = no such curve, though single readings can be large or run the other way; note: series mostly up to about 120 µM
Target sequence (P11473 whole entry, looked up): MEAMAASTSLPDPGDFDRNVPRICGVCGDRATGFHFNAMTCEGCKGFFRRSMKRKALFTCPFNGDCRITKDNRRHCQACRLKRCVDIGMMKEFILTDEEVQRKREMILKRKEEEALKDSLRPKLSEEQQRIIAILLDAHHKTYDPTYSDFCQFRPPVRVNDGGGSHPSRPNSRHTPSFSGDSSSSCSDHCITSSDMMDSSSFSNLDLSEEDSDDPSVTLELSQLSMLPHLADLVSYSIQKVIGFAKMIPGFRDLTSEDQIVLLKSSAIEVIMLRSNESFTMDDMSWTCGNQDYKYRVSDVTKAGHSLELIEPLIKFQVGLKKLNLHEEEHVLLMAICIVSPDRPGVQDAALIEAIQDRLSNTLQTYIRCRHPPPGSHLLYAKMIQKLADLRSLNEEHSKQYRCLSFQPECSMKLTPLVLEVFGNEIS
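Measured by FP: displacement of SRC2-3 coactivator peptide from VDR by library compounds, following a two-hour ambient incubation.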
Starred values were filed as active, the others as inactive; ? = inconclusive; & = joins results of further samples. % is set by controls: 0 for no effect and ±100 for the full control effect; potency is the fitted concentration of half-maximal effect. The list is partial (hit frequency here may not be typical).

SMILES | VDR inh
Cc1ccc(S(=O)(=O)N2CCOCC2)cc1C(=O)OCC(=O)NC1CCCC1 | 0%
O=C(Nc1ccc2c(c1)OCO2)C(c1ccccc1)N1CCC2(CC1)OCCO2 (configuration not stated) | 17%
CCOC(=O)c1c(NC(=S)Nc2ccc(OC)cc2)sc2c1CCC2 | -21%
CC(C)(C)Nc1nc(Cl)nc(N(C#N)CN2C(=O)c3ccccc3S2(=O)=O)n1 | ?
O=C1C(=O)N(Cc2cccs2)c2ccccc21 | -20%
O=C(NCc1nc2ccccc2[nH]1)c1cc2ccccc2oc1=O | 8%
Cc1cccc(C(=O)OCC(=O)Nc2ccc3c(c2)OCCO3)c1O | 8%
C=CCn1c(SCCOc2ccc(OC)cc2)nnc1C(C)NC(=O)Cc1ccc(OC)cc1 (configuration not stated) | -8%
Cc1cccc(N(C)C(=O)c2cc3c(=O)oc4ccc(C)cc4c3s2)c1 | -5%
Cc1ccc(CN2C3=NC(=O)CN3c3ccccc32)cc1 | -4%
Cc1ccc2nc(N3CCN(C(=O)c4ccccc4F)CC3)c(C#N)cc2c1 | -6%
CCOC(=O)C1C(c2ccc(O)c(OC)c2)NC(=O)NC1(O)C(F)(F)F (configuration not stated) | -7%
CN(C)C(=O)CCSc1nnc(-c2ccco2)o1 | -1%
O=C(Nc1cccc(Cl)c1)OCCOCCOC(=O)Nc1cccc(Cl)c1 | 2%
COC(=O)c1ccc(C)c(NC(=O)CN2C(=O)c3ccccc3S2(=O)=O)c1 | 12%
Cc1cccc(N2CC(c3nc4ccccc4n3C)CC2=O)c1C (configuration not stated) | -16%
Cc1ccc(C2CC(=O)Oc3c(C(C)C)ccc(C)c32)cc1 (configuration not stated) | -25%
COc1ccc(CNC(=O)CSc2nnc(C)n2-c2ccc(F)cc2)cc1 | -1%
COc1ccccc1[C@H]1C(c2ccccc2)=NN(c2ccccc2)[C@@H]1CO | -10%&4%
COc1cc(/C=N/NC(N)=S)ccc1OC(=O)c1ccc(C)cc1 | 8%
O=C(Nc1sc2c(c1C(=O)O)CCCCC2)c1ccco1 | -14%
CCOC(=O)C1=C(C)C(c2ccc(OC)cc2OC)NC(=O)N1 (configuration not stated) | 0%
COC(=O)c1ccccc1SCc1csc(C)n1 | -1%
Cc1cc(C)nc(/N=C(\N)Nc2ccc(OCCC(C)C)cc2)n1 | 9%
COc1cccc(-c2ccc3ncnc(NCCc4c[nH]c5ccc(OC)cc45)c3c2)c1 | 5%

Later entries.
SMILES | VDR inh
CC12CCC(C(=O)N3CCCCC3)(CC1=O)C2(C)C (configuration not stated) | -9%
O=C(Cn1cc(S(=O)(=O)Cc2cccc(Cl)c2)c2ccccc21)NCc1ccccc1Cl | -6%
COc1cccc(-c2ccc(SCC(=O)N3CCOCC3)nn2)c1 | -4%
CC(C)NC(=O)C1CCN(Cc2cccc(Oc3ccccc3)c2)CC1 | -25%
CCN(C(=O)COC(=O)c1cc([N+](=O)[O-])ccc1N1CCOCC1)c1ccccc1 | -17%
O=C(C1CCCN1S(=O)(=O)c1cccc2nsnc12)N1CCCCCC1 (configuration not stated) | 15%
COc1cc(OC)c2c(=O)cc(-c3cccnc3)oc2c1 | -19%
CCOC(=O)C1=CN(Cc2cccc(F)c2)S(=O)(=O)NC1c1ccccc1 (configuration not stated) | -25%
Oc1ccc(/C=N/N2CCN(C3c4ccccc4-c4ccccc43)CC2)cc1O | -1%
COc1cccc(CNC(=O)C(CCSC)NS(=O)(=O)c2ccc3c(c2)oc(=O)n3C)c1 (configuration not stated) | 15%
CCCCn1c2c(cc(C(=O)OC)c1=O)C(=O)CCC2 | -19%
O=C(NC12CC3CC(CC(C3)C1)C2)N1CCN(c2nc(-c3ccccc3)cs2)CC1 | 5%
CCCCn1c(N)c(N(CCC(C)C)C(=O)c2ccc([N+](=O)[O-])s2)c(=O)[nH]c1=O | -15%
CN1C(=O)C2(c3ccccc31)c1c(oc3ccccc3c1=O)C(=O)N2CCCO (configuration not stated) | -14%
COc1ccccc1NC(=O)COC(=O)Cc1cccs1 | -25%
COc1ccc(-c2[nH]c(-c3ccc(F)cc3)nc2SCC(=O)Nc2ccc(OC)c(OC)c2)cc1 | 8%
CCc1cccc(NC(=O)CCc2c(C)nn(-c3ccc(N4CCOCC4)nn3)c2C)c1 | -4%
Cc1nn(C)cc1/C=N/NC(=O)C1(O)c2ccccc2-c2ccccc21 | 5%
CCOC(=O)c1cn(CC(=O)Nc2ccc(CC)cc2)nn1 | -6%
CC(C)(C)OC(=O)N1CCC(C(=O)N2CCOCC2)CC1 | 5%
CN(CC(=O)N1CCN(Cc2ccccc2)CC1)C(=O)Cc1ccc(Cl)c(Cl)c1 | -1%
CC(C)(C)c1cc(C(C)(C)C)n(-c2ccccc2)n1 | -4%
O=C(NCc1ccc(F)cc1)Nc1ccc(Cl)cc1 | -4%
COc1cc(/C=C(\C#N)C(=O)NCc2ccccc2)ccc1OCc1ccc(C(=O)O)cc1 | ?
CC(C)Oc1ccc(CNC(=O)CN2C(=O)c3cccnc3Oc3ccc(Cl)cc32)cc1 | 8%

Next entries:
SMILES | VDR inh
CCOC(=O)Cc1csc(NS(=O)(=O)Cc2ccccc2)n1 | -4%
CC(=O)c1cccc(S(=O)(=O)Nc2cccnc2)c1 | -2%
COc1cc(Cl)c(C)cc1NC(=O)CCc1nc2cccnc2n1Cc1cccs1 | 4%
CC(=O)c1oc2ccccc2c1NC(=O)CCCN1C(=O)c2ccccc2C1=O | 2%
CCOC(=O)c1sc2nc(C)nc(SCC(=O)N(CC)C3CCS(=O)(=O)C3)c2c1C (configuration not stated) | 16%
CNC(=S)NNC(=O)c1cccc(C(F)(F)F)c1 | -2%
CCOCCCN1C(=O)CN(C2CCC(C)CC2)C(=O)C1c1ccc(C)cc1 (configuration not stated) | -4%
O=C1C2C3C=CC(C3)C2C(=O)N1CCC(=O)N1CCc2ccccc21 (configuration not stated) | -11%
COc1ccc(OC)c(-n2nnnc2SCC(=O)Nc2ccc3c(c2)OCCO3)c1 | 5%
CN1C(=O)CCC1(O)c1ccccc1 (configuration not stated) | -17%
CC(C)c1cc(NC(=O)C(C)(C)C)cc(C(C)C)c1O | -5%
COCCCn1c(C)cc(C(=O)COC(=O)C23CC4CC(CC(O)(C4)C2)C3)c1C | -16%
CSc1ncccc1C(=O)OCC(=O)c1ccccc1Br | -14%
COc1ccc(/C=N/N2C(=O)CSC2=S)cc1 | ?
CCN(C(=O)C1CCCN(c2ncnc3c2nc2n3CCCCC2)C1)c1cccc(C)c1 (configuration not stated) | 8%
COc1ccc(CCNC(=O)COC(=O)/C=C/c2ccc(OCC#N)c(OC)c2)cc1OC | -15%
Cc1ccc(CCNC(=O)c2cc3c(=O)n(C)c4ccccc4c3n2C)cc1 | -7%
CC(=O)CC(=O)Nc1ccc(Nc2ccccc2)cc1 | 15%
CC1Cc2ccccc2N1C(=O)CSc1nc2c(c(=O)n(C)c(=O)n2C)n1Cc1ccc(F)cc1 (configuration not stated) | -23%
CCC(Oc1ccc(C)cc1)C(=O)Nc1ccc2c(c1)n(C)c(=O)n2C (configuration not stated) | -9%
Cc1ccc(C2CC(=O)C=C(NCC(C)C)C2)cc1 (configuration not stated) | ?
CC1=NN(c2ccc(C)cc2C)C(=O)C1C(c1ccccc1O)C1C(=O)N(c2ccc(C)cc2C)N=C1C (configuration not stated) | ?
COc1cccc(C2C(C(=O)c3ccc(C)o3)=C(O)C(=O)N2CCN2CCOCC2)c1OC (configuration not stated) | -10%
Cc1ccc(S(=O)(=O)NCCC(=O)NCC(c2ccco2)N2CCCCC2)cc1C (configuration not stated) | 0%
COc1ccc(C(C(=O)NC2CCCC2)N(C(=O)c2snc(-c3ccc(F)cc3)c2N)c2ccc(OC)cc2)cc1 (configuration not stated) | 6%

(listing goes on)
SMILES | VDR inh
COc1ccccc1NC(=O)CSc1ccc(-c2ccccn2)nn1 | 17%&7%
Cc1ccc(NC(=O)CSc2nc(-c3cccs3)nc3cc(=O)[nH]n23)cc1 | -6%
CC(OC(=O)c1ccc(NC(N)=O)cc1)C(=O)Nc1ccc2c(c1)OCCO2 (configuration not stated) | 1%
Nn1c(COc2ccccc2F)nnc1SCC(=O)NC1CCCCC1 | -7%
COCCCn1c(SCC(=O)NCc2ccccc2)nc2ccccc2c1=O | 3%
Cc1ccc(Cl)cc1N1CCN(C(=O)COc2ccc(S(=O)(=O)NC(C)C)cc2)CC1 | -12%
COc1c(F)c(F)c(C(=O)O)c(Nc2cc(C)cc(C)c2)c1F | -6%
Cc1c(Cl)cccc1NC(=S)N(Cc1cccnc1)Cc1ccccc1Cl | 5%
CCN1C(=O)c2ccc(C(=O)NCc3ccccc3)cc2C1=O | -8%
Cc1nc(Oc2ccccc2C)c2oc3ccccc3c2n1 | 3%
Cc1ccc(CNC(=O)c2cnc3c(-c4ccccc4)c(C)nn3c2C)o1 | 4%
O=C1CCC/C1=C/Nc1cccc(F)c1 | ?
CC(=O)CC1(O)C(=O)N(Cc2ccccc2)c2ccccc21 (configuration not stated) | -24%
Cc1noc(C)c1C(=O)N1CCC2(CCCN(C(=O)Nc3cccc(F)c3)C2)CC1 | 0%
O=C(Nc1ccccn1)c1ccc(CN(c2ccccc2)S(=O)(=O)c2ccccc2)cc1 | 12%
O=C(CCCN1C(=O)/C(=C/c2ccc3c(c2)OCO3)SC1=S)Nc1cccc(C(=O)O)c1 | -14%
CCOCCCn1c(SC(C(=O)Nc2cc(C)ccc2C)c2ccccc2)nnc1-c1ccc(Cl)cc1 (configuration not stated) | 4%
CCS(=O)(=O)N1CCN(c2nc(-c3ccccc3)cs2)CC1 | 2%
COc1ccc(CCNC(=O)Cc2cccc(C(F)(F)F)c2)cc1OC | -4%
O=C(CN(CCc1ccccc1)S(=O)(=O)c1ccc(Br)cc1)N/N=C/c1ccccc1C(=O)O | -9%
COc1ccc(C2c3c(n(C)c4ccccc34)C(=O)N2CC(=O)Nc2ccccc2Cl)cc1 (configuration not stated) | 3%
O=C1/C(=C/c2ccc(F)cc2)SC(=S)N1CC(=O)N1CCCCC1c1cccnc1 (configuration not stated) | 4%
CCOC(=O)C1=C(C(F)(F)F)Nc2ncnn2C1c1ccc(OC)c(OC)c1OC (configuration not stated) | 8%
Cn1cc(CN2CCCCC2c2ccccn2)c(-c2ccc3c(c2)OCCO3)n1 (configuration not stated) | 16%
COc1ccc(-n2ncc(S(=O)(=O)c3ccccc3)c2-c2ccc(Cl)cc2)cc1 | 3%

Part of the list above, with values ahead of the structure.
VDR inh | mol
-7% | Nn1c(COc2ccccc2F)nnc1SCC(=O)NC1CCCCC1
3% | COCCCn1c(SCC(=O)NCc2ccccc2)nc2ccccc2c1=O
-12% | Cc1ccc(Cl)cc1N1CCN(C(=O)COc2ccc(S(=O)(=O)NC(C)C)cc2)CC1
-6% | COc1c(F)c(F)c(C(=O)O)c(Nc2cc(C)cc(C)c2)c1F
5% | Cc1c(Cl)cccc1NC(=S)N(Cc1cccnc1)Cc1ccccc1Cl
-8% | CCN1C(=O)c2ccc(C(=O)NCc3ccccc3)cc2C1=O
3% | Cc1nc(Oc2ccccc2C)c2oc3ccccc3c2n1
4% | Cc1ccc(CNC(=O)c2cnc3c(-c4ccccc4)c(C)nn3c2C)o1
? | O=C1CCC/C1=C/Nc1cccc(F)c1
-24% | CC(=O)CC1(O)C(=O)N(Cc2ccccc2)c2ccccc21 (configuration not stated)
0% | Cc1noc(C)c1C(=O)N1CCC2(CCCN(C(=O)Nc3cccc(F)c3)C2)CC1
12% | O=C(Nc1ccccn1)c1ccc(CN(c2ccccc2)S(=O)(=O)c2ccccc2)cc1
-14% | O=C(CCCN1C(=O)/C(=C/c2ccc3c(c2)OCO3)SC1=S)Nc1cccc(C(=O)O)c1
4% | CCOCCCn1c(SC(C(=O)Nc2cc(C)ccc2C)c2ccccc2)nnc1-c1ccc(Cl)cc1 (configuration not stated)
2% | CCS(=O)(=O)N1CCN(c2nc(-c3ccccc3)cs2)CC1
-4% | COc1ccc(CCNC(=O)Cc2cccc(C(F)(F)F)c2)cc1OC
-9% | O=C(CN(CCc1ccccc1)S(=O)(=O)c1ccc(Br)cc1)N/N=C/c1ccccc1C(=O)O
3% | COc1ccc(C2c3c(n(C)c4ccccc34)C(=O)N2CC(=O)Nc2ccccc2Cl)cc1 (configuration not stated)
4% | O=C1/C(=C/c2ccc(F)cc2)SC(=S)N1CC(=O)N1CCCCC1c1cccnc1 (configuration not stated)
8% | CCOC(=O)C1=C(C(F)(F)F)Nc2ncnn2C1c1ccc(OC)c(OC)c1OC (configuration not stated)
16% | Cn1cc(CN2CCCCC2c2ccccn2)c(-c2ccc3c(c2)OCCO3)n1 (configuration not stated)
3% | COc1ccc(-n2ncc(S(=O)(=O)c3ccccc3)c2-c2ccc(Cl)cc2)cc1

Next part:
SMILES | VDR inh
Cc1cccc(-n2c(SCc3cc(=O)n4ccsc4n3)nc3ccccc3c2=O)c1 | 21%
Cc1ccnc(SCc2cc(=O)c(OC(=O)c3ccc(S(=O)(=O)N(C)C)cc3)co2)n1 | -20%
CCOc1ccc(C(=O)NC(=S)Nc2ccccc2N2CCCCC2)cc1[N+](=O)[O-] | -13%
CC(=O)N1CCn2c3c(c4cc(C)ccc42)CCCC31 (configuration not stated) | -11%
CCCCOC(=O)c1cccc(NC(=O)c2cc3ccccc3o2)c1 | 1%
Cc1ccc(C(C)C)cc1NC(=O)Nc1ccc([N+](=O)[O-])cc1 | 1%
Cc1ccc2nc(N3CCN(c4cccc(C(F)(F)F)c4)CC3)c3nnnn3c2c1 | 8%
COc1ccccc1NC(=O)CSC1=Nc2ccccc2N=C(c2ccc(F)cc2)C1 | -7%
O=c1c(S(=O)(=O)c2cccc(Cl)c2)cn(Cc2ccccc2)c2cc(N3CCCCC3)c(F)cc12 | -8%
COC(=O)CCc1c(C)c(C(=O)c2cc(F)c(F)c(F)c2F)c2ccccn12 | 9%
CSc1ccc(NC(=O)NCc2cccnc2)cc1 | -10%
CC(C)OCC(O)Cn1c(N2CCCC2)nc2c1c(=O)[nH]c(=O)n2C (configuration not stated) | 5%
COc1cc(OC)cc(C(=O)Nc2ccc(N3CCOCC3)cc2N2CCOCC2)c1 | 14%
COc1cccc(Cn2c(=O)cnc3cnc(Nc4cccc(OC)c4)nc32)c1 | -2%
CCn1c(C(=O)N2CCc3ccccc3C2)cc2sccc21 | -12%
